Screens from PubChem.
TRPML1 agonist: agonists of human TRPML1 channel; activation, % (test concentration not listed); 410,000 tested, 0.12% active; AID 624414; TRPML1-expressing cells, Ca2+ dye fluorescence, FDSS; host cell line not named in the record; reference of the full effect not given here; Q9GZU1; in the data active = activation above about 50%; inconclusive = about 30% to 50%; inactive = below about 30%; also: 0% is about no effect; the text of the record puts the active cut at 80%
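Calcium fluorescence on an FDSS kinetic reader gave the read-out. Tet-induced TRPML1-DL cells were plated overnight, dye-loaded (Ca8 with quencher, 45-90 min, room temperature, dark), then read 110 s after compound addition, and again 110 s after 4uM final 54-4 (EC80).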
Six1-Eya2 inh: Six1/Eya2 interaction inhibition; AlphaScreen GST-Six1/His-Eya2 binding, biochemical; stronger effect = lower value; control for the full effect not named in the record; activity change, % (test concentration not listed); 360,000 tested, 0.56% active; AID 651725; in the data active = activity change below about -65%; inconclusive = about -30% to -65%; inactive = above about -30%; also: % is scaled to controls: 0 for no effect and ±100 for the full control effect; compound concentration not given in the record
Target sequence (O00167 whole entry, looked up): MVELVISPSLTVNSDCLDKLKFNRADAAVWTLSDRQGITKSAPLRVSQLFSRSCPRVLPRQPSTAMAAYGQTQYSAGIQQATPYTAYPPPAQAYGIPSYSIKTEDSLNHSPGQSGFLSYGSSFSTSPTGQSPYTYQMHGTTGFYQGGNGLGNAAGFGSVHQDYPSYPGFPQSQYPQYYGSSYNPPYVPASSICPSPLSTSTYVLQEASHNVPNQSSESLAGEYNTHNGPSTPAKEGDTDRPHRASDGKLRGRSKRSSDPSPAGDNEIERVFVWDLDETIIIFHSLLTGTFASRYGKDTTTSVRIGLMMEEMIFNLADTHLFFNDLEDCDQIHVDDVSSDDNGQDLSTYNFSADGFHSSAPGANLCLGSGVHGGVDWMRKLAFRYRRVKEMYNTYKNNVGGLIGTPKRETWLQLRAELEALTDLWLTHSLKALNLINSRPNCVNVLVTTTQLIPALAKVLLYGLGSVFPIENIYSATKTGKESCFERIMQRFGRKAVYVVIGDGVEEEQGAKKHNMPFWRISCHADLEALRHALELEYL
Target sequence (Q15475 whole entry, looked up): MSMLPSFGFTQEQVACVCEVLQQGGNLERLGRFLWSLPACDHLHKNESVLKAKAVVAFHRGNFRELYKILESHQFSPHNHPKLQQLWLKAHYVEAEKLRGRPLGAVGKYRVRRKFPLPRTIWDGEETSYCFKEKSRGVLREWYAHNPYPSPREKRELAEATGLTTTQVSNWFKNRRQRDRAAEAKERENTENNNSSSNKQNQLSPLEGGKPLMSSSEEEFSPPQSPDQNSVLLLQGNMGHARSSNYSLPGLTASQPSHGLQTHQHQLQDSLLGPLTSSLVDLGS
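Six1/Eya2 binding was read as AlphaScreen signal after compounds were pinned into GST-Six1 plus His-tagged Eya2 (5X stock 250/500 nM) in pH 8.0 Tris/NaCl/TCEP buffer, beads added, then incubated 1 h, 37 C, dark.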
TRPML1 blocker: human mucolipin-1 channel inhibition | AID 624415 | activity change, negative = inhibition, % (test concentration not listed) | Q9GZU1 | TRPML1-inducible cells, Ca2+ dye fluorescence, FDSS; stronger effect = lower value; inhibition of EC80 agonist-evoked calcium signal | 390,000 tested, 0.02% active; in the data active means activity change below about -50%; inconclusive means about -30% to -50%; inactive means above about -30%;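 also: stimulus is agonist 54-4 at its EC80 concentration; % is scaled to controls: 0 for no effect and ±100 for the full control effect; compound concentration not given in the record; the text of the record puts the active cut at -80%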
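Calcium fluorescence in TRPML1-DL cells induced overnight with Tet: a 110 s read after compound pin addition, then a 110 s antagonist read after challenge with 54-4 at 4 uM final (EC80).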
D2 agonist: agonists of human D2 dopamine receptor (beta-arrestin); P14416; DiscoveRx PathHunter D2 beta-arrestin, luminescence, 90 min; 100% = 57 uM dopamine signal; activation, % (no concentration beside the values); 360,000 tested, 0.084% active; AID 624465; in the data active = activation above about 40%; inconclusive = about 15% to 40%; inactive = below about 15%; also: compound concentration not given in the record; the text of the record calls up to 30% inactive
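DiscoveRx PathHunter D2 beta-arrestin cells (2,100/well) attached overnight, then compound-stimulated 90 min at 37 C in HBSS/10 mM HEPES/0.1% Tween-20 buffer; beta-galactosidase complementation read by luminescence after 1 h at ambient temperature. Dopamine 57 uM final (EC100) as control.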
PINK1 modulator: PINK1 expression modulation. Potency, µM (highest dose often 76.6 µM), for the others: at the highest dose activation (PINK1 increase), most hits filed as activators. 410,000 tested, 0.2% active. PINK1 immunofluorescence, high-content cytometry, 24 h; active = well fitted activation curve with a large enough effect; inconclusive = small, poorly fitted or top-dose-only effect; inactive = flat fitted curve, though single readings scatter; cell line not stated here;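 also: potency is read from the fitted curve at half-maximal effect; % of control where 0% means no effect; nearly all actives have a fitted effect of over 65% in size; a mitochondrial uncoupler was the plate control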
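PINK1 protein level read as immunofluorescence by microplate cytometer in a fixed, stained stable cell line after 24 h exposure to five compound concentrations, with CCCP as control.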
CtBP-E1A inh: blocks the CtBP interaction with E1A | AlphaScreen GST-E1A/His-CtBP binding, 1536-well; stronger effect = lower value; control for the full effect not named in the record | activity change, % (no concentration beside the values) | 340,000 tested, 0.49% active | AID 651724; in the data active means activity change below about -65%; inconclusive means about -30% to -65%; inactive means above about -30%; also: % is scaled to controls: 0 for no effect and ±100 for the full control effect; compound concentration not given in the record
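GST-E1A and His-tagged CtBP (125 nM each as 5X stock) were preincubated with pin-transferred compound for 2 h at 37 °C in the dark, then glutathione donor and nickel acceptor beads were added for 1 h before AlphaScreen reading.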
An asterisk follows results filed as active; ? = inconclusive; nt = no result given; & = joins results of further samples.

SMILES | TRPML1 agonist | Six1-Eya2 inh | TRPML1 blocker | D2 agonist | PINK1 modulator | CtBP-E1A inh
Cc1cccc(N2CCN(C(=O)CCC(=O)NNc3nc4ccccc4c4nc(C)nn34)CC2C)c1 (centres undefined) | 1.0 | nt | 16 | nt | -1.7% | nt
COc1cc(C(c2c(C)[nH][nH]c2=O)c2c(C)[nH][nH]c2=O)ccc1OC(=O)c1cccc(C)c1 | 1.1 | nt | 18 | nt | -0.1% | nt
CC1(C)O[C@H]2CC(=O)OC[C@@]23C1CC(=O)[C@]1(C)C3CC[C@@]2(C)[C@H](c3ccoc3)OC(=O)[C@H]3O[C@]321 (some centres undefined) | nt | 0 | nt | -5.3 | -0.5% | 6
CNCCCN1c2ccccc2CCc2ccccc21 | -0.1 | -4 | -6 | -0.8&-3.5 | -0.1% | -7
C[N+]1(C)CCC(=C(c2ccccc2)c2ccccc2)CC1 | -0.6 | -3 | 24 | -2.9 | 3.0% | -4
C/C=C(/C)C(=O)OC(C)(C)[C@@H]1Cc2c(ccc3ccc(=O)oc23)O1 | 1.4 | 3 | 2 | -5.6 | 0.9% | 3
O=C(O)CCC(=O)c1ccc(-c2ccccc2)cc1 | -0.1 | -7 | -2 | -5.9 | 1.6% | 5
COc1cc(-c2oc3cc(O)cc(O)c3c(=O)c2O[C@@H]2O[C@H](COC3O[C@@H](C)[C@H](O)[C@@H](O)[C@H]3O)[C@@H](O)[C@H](O)[C@H]2O)ccc1O (some centres undefined) | 0.6 | -1 | -7 | -4.8 | 0.3% | -3
Cc1nc2c(-c3ccccc3)c(C)[nH]n2c(=O)c1Cc1ccc(Br)cc1 | -0.4 | nt | 18 | nt | 2.6% | nt
CCC(NC(C)C)C(O)c1ccc(O)c2[nH]c(=O)ccc12 (centres undefined) | 0.1 | -4 | 17 | 3.6 | 0.3% | 0
CCCCNc1ccc(C(=O)OCCOCCOCCOCCOCCOCCOCCOCCOCCOC)cc1 | -0.9 | -5 | 39 | -5.5 | 3.0% | -1
CC(=O)Nc1ccc(CC(=O)O)cc1 | -0.7 | 1 | 0 | 3.5 | -0.2% | 0
CCCCNc1ccc(C(=O)OCCN(C)C)cc1 | -0.9 | 2 | 4 | -1.4 | 0.6% | -1
Cc1cccc2c1NC(=O)C2(c1ccc(O)cc1)c1ccc(O)cc1 | -0.2 | 8 | 4 | 0.4 | -0.5% | -9
O=c1oc2c(O)c(O)cc3c(=O)oc4c(O)c(O)cc1c4c23 | -0.3&0.4 | -74* | 1 | 5.7 | -0.4%&3.4% | -13

Reprinted from the part before: 6 entries; new compounds follow.
SMILES | TRPML1 agonist | Six1-Eya2 inh | TRPML1 blocker | D2 agonist | PINK1 modulator | CtBP-E1A inh
CCC(NC(C)C)C(O)c1ccc(O)c2[nH]c(=O)ccc12 (centres undefined) | 0.1 | -4 | 17 | 3.6 | 0.3% | 0
CCCCNc1ccc(C(=O)OCCOCCOCCOCCOCCOCCOCCOCCOCCOC)cc1 | -0.9 | -5 | 39 | -5.5 | 3.0% | -1
CC(=O)Nc1ccc(CC(=O)O)cc1 | -0.7 | 1 | 0 | 3.5 | -0.2% | 0
CCCCNc1ccc(C(=O)OCCN(C)C)cc1 | -0.9 | 2 | 4 | -1.4 | 0.6% | -1
Cc1cccc2c1NC(=O)C2(c1ccc(O)cc1)c1ccc(O)cc1 | -0.2 | 8 | 4 | 0.4 | -0.5% | -9
O=c1oc2c(O)c(O)cc3c(=O)oc4c(O)c(O)cc1c4c23 | -0.3&0.4 | -74* | 1 | 5.7 | -0.4%&3.4% | -13
C/C=C/C(=O)N(CC)c1ccccc1C | 0.2 | 6 | -11 | -3.2 | -1.2% | 4
NC1CCN(c2nc3c(cc2F)c(=O)c(C(=O)O)cn3-c2ccc(F)cc2F)C1 (centres undefined) | 0.1&-0.8 | -4 | -11 | 2.1 | 5.1%&0.9% | 0
COc1ccc(-n2nc3c(N4CCCC(C(=O)NCc5ccccc5C)C4)nnc(C)c3c2C)cc1 (centres undefined) | 2.5 | nt | 35 | nt | -0.8% | nt
CN1CCCN=C1COC(=O)C(O)(c1ccccc1)C1CCCCC1 (centres undefined) | -0.1 | -1 | 7 | -6.3 | -0.1% | 0
COc1ccc(CC(=O)Nc2c(C(=O)N3CCN(c4ccccc4F)CC3)oc3ccccc23)cc1OC | 0.1 | nt | -4 | nt | 2.4% | nt
C1COC(NC(C2CC2)C2CC2)=N1 | -0.4 | 10 | -10 | 0.4 | -0.4% | -3
Oc1ccc2c(c1)OCC1(O)Cc3cc(O)c(O)cc3C21 (centres undefined) | nt | -1 | nt | 12 | -0.4% | -12
CCOC(=O)[C@H](CCc1ccccc1)N[C@@H](C)C(=O)N1Cc2ccccc2C[C@H]1C(=O)O | -1.0 | -9 | 6 | 2.7 | 3.6% | -1
N[C@@H](Cc1c[nH]c2ccc(O)cc12)C(=O)O | 0.2&-0.2 | 2 | 28 | 2.3 | -1.1%&0.6% | ?
CC(C)=CCOc1c2ccoc2cc2oc(=O)ccc12 | 1.2 | 4 | -2 | 1.1 | -0.2% | 2
CC12CCC(=O)C=C1CCC1C2CCC2(C)C1CCC2(O)C(=O)CO (centres undefined) | -0.3 | 2 | -1 | 3.2 | 4.5% | 3
COc1cc([C@@H]2Oc3cc(C4Oc5cc(O)cc(O)c5C(=O)[C@H]4O)ccc3O[C@H]2CO)ccc1O (some centres undefined) | -0.3 | -1 | 4 | 11 | 1.1% | -13
CCCCCC(=O)O[C@]1(C(C)=O)CC[C@H]2[C@@H]3CCC4=CC(=O)CC[C@]4(C)[C@H]3CC[C@@]21C | 1.9 | -5 | 71 | 0.9 | 28% | 3
C=CC[n+]1ccc(/C=C2\C=Cc3cc(C)ccc3N2CC)c2ccccc21 | 0.4 | -73* | -30 | 5.5 | 3.2µM* | -21
COc1ccc(C2CNC(=O)C2)cc1OC1CCCC1 (centres undefined) | -0.9 | 1 | -10 | -3.7 | 1.5% | 0
CC(=O)CCCCn1c(=O)c2c(ncn2C)n(C)c1=O | -0.4 | -1 | 2 | 4.2 | 0.3% | 1
O=C(CSc1nc2ccccc2n1Cc1cccc(Cl)c1)N1CCN(c2ccc(F)cc2)CC1 | 0.5 | nt | -3 | nt | 1.2% | nt
CCCCn1cnc2cc(NCc3ccccc3Cl)ccc21 | -1.4 | nt | -9 | nt | 0.6% | nt
O=C(O)c1cccnc1Nc1cccc(C(F)(F)F)c1 | -0.5 | -1 | -4 | -0.6 | 0.5% | 2
COc1ccccc1N1CCN(CCCN=C2CC(=O)N(C)C(=O)N2C)CC1 | -0.9 | -2 | 34 | -3.0 | -0.3% | 0
CC1Cc2ccccc2N1NC(=O)c1ccc(Cl)c(S(N)(=O)=O)c1 (centres undefined) | 0.3 | -85* | -12 | -2.4 | 1.3% | -12
COc1ccc(-c2cn3cccnc3n2)cc1NC(=O)c1cc(C)cc(C)c1 | 0.1 | nt | -10 | nt | 0.5% | nt
Cc1c(C(=O)O)c(O)cc2c1C(=O)c1c(O)c([C@@H]3O[C@H](CO)[C@@H](O)[C@H](O)[C@H]3O)c(O)c(O)c1C2=O | -0.8 | ? | 10 | -8.0 | -1.0% | -2
Oc1cc2c(cc1O)[C@H]1c3ccc(O)c(O)c3OC[C@@]1(O)C2 | -0.1 | -7 | 23 | -0.9 | -1.2% | -19
O=C(CCCCCn1c(=O)c2sccc2n(CC(=O)Nc2cccc(Cl)c2)c1=O)NCc1ccc2c(c1)OCO2 | 0.4 | nt | 2 | nt | -0.3% | nt
NOCC(=O)O | 0.2 | 2 | 6 | 0.9 | -0.3% | 3
Cc1cncn1CCc1nc2c3ccccc3nc(SCC(=O)Nc3cccc(Cl)c3)n2n1 | 0.8&-0.4 | ? | ? | -6.8 | ? | -3
COc1ccc(C[C@H]2COC(=O)[C@@H]2Cc2ccc(OC3OC(CO)C(O)C(O)C3O)c(OC)c2)cc1OC (some centres undefined) | -0.8 | 3 | -2 | -3.5 | -0.3% | 0
NC(N)=O | -0.3 | -3 | 17 | 10 | 1.9% | 0
COc1ccc(-c2cc(=O)c3c(O)cc(OC4OC(COC5OC(C)C(O)C(O)C5O)C(O)C(O)C4O)cc3o2)cc1O (centres undefined) | nt | -1 | nt | -2.5 | 2.2% | 6
CC(O)CNC(=O)C(=O)Nc1c2c(nn1-c1ccc(Cl)cc1)CSC2 (centres undefined) | -0.1 | nt | -9 | nt | 1.0% | nt
COC(=O)C1=CO[C@@H](O[C@@H]2O[C@H](CO)[C@@H](O)[C@H](O)[C@H]2O)C2C1C[C@H](O)[C@@H]2C (some centres undefined) | -0.3 | 0 | -3 | -1.2 | 0.9% | 3
COc1ccc(Cn2c(SCc3ccc(C(=O)NC4CCCC4)cc3)nc3ccncc32)cc1 | -1.0 | nt | 13 | nt | 1.2% | nt
COCCn1c(SCC(=O)Nc2ccc(F)c(Cl)c2)nc2c(oc3ccccc32)c1=O | 0.9 | nt | 52 | nt | 1.2% | nt
CCN(CC)CCOC(=O)c1ccc(N)cc1 | 0.2 | 2 | 21 | -5.4 | 0.8% | 10
Cc1ccc(=O)n(-c2ccccc2)c1 | -0.1 | 1 | -14 | -7.0 | 1.6% | 11
COc1ccc(-c2cc(=O)c3c(O)cc(O[C@@H]4O[C@H](CO[C@@H]5O[C@@H](C)[C@H](O)[C@@H](O)[C@H]5O)[C@@H](O)[C@H](O)[C@H]4O)cc3o2)cc1O | -0.6 | -7 | 8 | -4.6 | -0.1% | 1
CCc1ccc(CCOc2ccc(CC3SC(=O)NC3=O)cc2)nc1 (centres undefined) | -0.5 | -2 | -9 | 4.4 | -0.3% | 5
O=C(Cn1c(=O)n(Cc2ccco2)c(=O)c2oc3ccccc3c21)Nc1ccccc1 | 1.1 | nt | 2 | nt | -0.2% | nt

Six1-Eya2 inh, entries above that show a hit
Structure	Six1-Eya2 inh	TRPML1 blocker	D2 agonist	PINK1 modulator	CtBP-E1A inh
O=c1oc2c(O)c(O)cc3c(=O)oc4c(O)c(O)cc1c4c23	-74*	1	5.7	-0.4%&3.4%	-13
C=CC[n+]1ccc(/C=C2\C=Cc3cc(C)ccc3N2CC)c2ccccc21	-73*	-30	5.5	3.2µM*	-21
CC1Cc2ccccc2N1NC(=O)c1ccc(Cl)c(S(N)(=O)=O)c1 (centres undefined)	-85*	-12	-2.4	1.3%	-12

Not all compounds are listed; count on the stated rates, not on these rows.
